Arbovirus anti = arbovirus infection inhibition. arbovirus infection cell-based antiviral screen. inhibition, % at 10 µM. 200,000 compounds, 0.37% hits;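 active = inhibition from about 30%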;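 note: bluetongue infection of BSR cells; cell survival read as ATP light after 72 h; 0% = infected wells without compound and 100% = uninfected wells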
Mtb betalactam = beta-lactam sensitization of Mtb H37Rv; 330,000 compounds, 0.27% hits; inhibition, % at 25 µM; AID 434955; M. tuberculosis H37Rv growth with meropenem, percent inhibition; hits of this screen are not shown here;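 active = about 74% or more and at least 40 points above the plate without the antibiotic, then above 30% in a dose series; inconclusive = first-round hits that could not be retested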;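 note: growth measured after seven days incubation then overnight dye step; 0% = bacteria only wells and 100% = bacteria with antibiotic; twin plates without the antibiotic show which effects depend on it; some results filed as inactive read as strong as hits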
YopH PTP inh = blocks Yersinia enterocolitica YopH tyrosine phosphatase; 140,000 compounds, 0.16% hits; inhibition, %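 (about 10 µM by stock and volumes)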; AID 898; fluorescence Ex485/Em525;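 active = inhibition of 50% or more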;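 note: controls were vehicle for no effect and minimum signal wells for full effect; inactives centre near -20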
RecA splice inh = inhibitors of M. tuberculosis RecA intein splicing; P9WHJ3; cell-free RecA intein splicing, fluorescence; inhibition, %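 (about 9 µM by stock and volumes)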; 290,000 compounds, 0.75% hits; AID 2221; in the data active = inhibition above about 30%; inconclusive = no clear call, values can overlap the other calls;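 note: 0% = vehicle wells and 100% = reference inhibitor control wells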
Target sequence (P9WHJ3 whole entry, looked up, canonical isoform): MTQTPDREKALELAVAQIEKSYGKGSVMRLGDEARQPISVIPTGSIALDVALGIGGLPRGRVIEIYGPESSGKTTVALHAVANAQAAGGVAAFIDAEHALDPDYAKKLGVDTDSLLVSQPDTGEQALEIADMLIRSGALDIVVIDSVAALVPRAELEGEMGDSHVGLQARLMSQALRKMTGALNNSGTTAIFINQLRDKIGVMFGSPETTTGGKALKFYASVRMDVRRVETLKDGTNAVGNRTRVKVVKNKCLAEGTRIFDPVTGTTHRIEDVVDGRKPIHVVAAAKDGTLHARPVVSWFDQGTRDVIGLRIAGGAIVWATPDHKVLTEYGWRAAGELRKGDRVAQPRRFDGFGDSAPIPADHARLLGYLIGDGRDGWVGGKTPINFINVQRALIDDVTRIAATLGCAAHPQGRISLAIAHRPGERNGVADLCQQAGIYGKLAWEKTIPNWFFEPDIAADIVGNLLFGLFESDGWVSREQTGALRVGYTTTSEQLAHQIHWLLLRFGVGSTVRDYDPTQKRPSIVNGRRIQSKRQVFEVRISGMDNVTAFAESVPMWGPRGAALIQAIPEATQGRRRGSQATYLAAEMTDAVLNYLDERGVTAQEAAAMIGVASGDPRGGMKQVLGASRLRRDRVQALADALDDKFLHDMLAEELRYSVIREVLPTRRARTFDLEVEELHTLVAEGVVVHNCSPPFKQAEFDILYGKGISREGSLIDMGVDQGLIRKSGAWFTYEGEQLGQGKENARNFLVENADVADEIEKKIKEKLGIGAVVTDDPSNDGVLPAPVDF
Mtb H37Rv = M. tuberculosis H37Rv growth inhibitors, H37Rv strain (AID 1626) | inhibition, % at 10 µM; hits with a dose series show IC50 in µM | M. tuberculosis H37Rv growth inhibition; higher % means a stronger effect | 220,000 compounds, 0.95% hits;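 active = confirmed in a dose series; inconclusive = inhibition above 80% but not taken into the dose series; inactive = below 80% or under 30% at every dose of the series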;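 note: bacteria incubated seven days before Alamar blue readout; 0% = bacteria only wells and 100% = bacteria with antibiotic wells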
Arbovirus anti repeat = also measured in Arbovirus anti; calls as there; inhibition, %; measured here: 10K subset replicate screen; many hits read low in the repeat;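 first of two repeat runs on a subset; 0% = infected and 100% = uninfected wells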
Numbers without * were called inactive; ? = inconclusive; nt = no result given.

SMILES	Arbovirus anti	Mtb betalactam	YopH PTP inh	RecA splice inh	Mtb H37Rv	others
Cc1nn(-c2ccc(F)cc2)c(Cl)c1/C=C/C(=O)OCC(=O)Nc1c(F)c(F)c(F)c(F)c1F	4	-4	-28	nt	-1%
O=C(CCNS(=O)(=O)c1ccc(Br)cc1)NC1CCN(Cc2ccccc2)CC1	nt	-2	nt	-3.1	nt
Cc1ccccc1S(=O)(=O)c1cc2ccccc2nc1N	0	0	nt	-9.5	1%
CCCC(=O)Nc1ccc(NC(=O)C2CC2)cn1	0	-14	-210	0.0	nt
COCCNC(=O)C(C)N(c1ccc(Oc2ccccc2)cc1)S(C)(=O)=O (stereo unspecified)	-6	-7	-29	0.3	-4%	Arbovirus anti repeat=2
CCCSc1ccc([C@@H]2[C@H]3C(=O)N(CC)C(=O)[C@H]3[C@]3(C(=O)OC)CCCCN23)cc1	nt	-1	nt	4.7	nt
O=C(NNC(=S)Nc1ccc(Cl)c(Cl)c1)c1cccc([N+](=O)[O-])c1	nt	0	nt	17	6%
CCNc1nc(NCC)nc(N(C)/N=C/c2ccco2)n1	nt	7	nt	-6.2	nt
CC1CCN(Cc2c(C(=O)O)nnn2-c2nonc2N)CC1	1	-2	nt	0.0	-4%
O=C(Nc1ccccc1)c1ccsc1	2	-4	-36	-0.2	-12%
CN1CCN(c2nc3c(c(=O)[nH]c(=O)n3C)n2CCSc2nc3ccccc3s2)CC1	5	2	-36	-1.0	0%	Arbovirus anti repeat=2
S=C(NCCN1CCCCC1)Nc1ccc(Br)cc1	nt	2	nt	-0.3	4%
CC(C)[n+]1ccn(C2=C([O-])c3ccccc3C(=O)/C2=N\S(=O)(=O)c2ccccc2)c1	nt	-1	nt	31*	5%
C/C(=N\NC(=O)c1cccnc1)c1ccccc1	nt	-26	nt	0.2	nt
O=C(c1ccccc1F)N1CCCc2ccccc21	nt	9	nt	0.3	nt
CC1(C)CC(=O)C=C(C(=O)N2CCCC(C(=O)c3cccc(Cl)c3)C2)O1 (stereo unspecified)	5	-8	nt	2.3	2%
Nc1nnc(CCN2CCCCC2)s1	8	-5	-33	0.8	8%
Cc1[nH]n(C(N)=S)c(=O)c1N=Nc1ccccc1C(F)(F)F	nt	-3	nt	-2.2	nt
CCN(CCN1CCCC1)C(=O)C1CCC(=O)N(CCCN2CCOCC2)C1 (stereo unspecified)	nt	0	nt	-1.7	nt
Cc1ccc2nc(Cl)c(C3CC(c4ccco4)=NN3C(=O)CCCC(=O)O)cc2c1 (stereo unspecified)	nt	-2	nt	2.6	0%
CCOC(=O)c1cnc(SCC(=O)Nc2ccc(NC(C)=O)c(OC)c2)nc1N	11	2	-50	1.7	2%
CCOC(=O)C12CNC(=O)C(C(=O)OCC)(CNC1=O)C2	3	-19	-36	-0.1	-13%
Cc1ccn2c(NC(=O)c3ccccc3)c(-c3cccs3)nc2c1	0	-4	-33	1.1	2%
COc1ccc(Cn2nnnc2C(c2cc(OC)ccc2OC)N2CCC(C(N)=O)CC2)cc1 (stereo unspecified)	-3	11	-2	-6.1	-6%
CCOc1ccc(/C=N/NC(=O)C(C)Sc2ccccn2)cc1OCC (stereo unspecified)	-6	1	-17	-2.6	-1%
SMILES	Arbovirus anti	Mtb betalactam	YopH PTP inh	RecA splice inh	Mtb H37Rv	others
COc1ccc(Cl)cc1NC(=O)Nn1cnnc1	-2	-7	-17	2.4	-2%
CCOC(=O)c1ccc(N2C(=O)CC(Nc3ccc(O)cc3)C2=O)cc1 (stereo unspecified)	nt	71	nt	-4.9	48%
COc1ccccc1/C=C/C=N/n1c(-c2n[nH]c3c2CCC3)n[nH]c1=S	nt	-12	nt	nt	0%
C/C(=N\NC(=O)CCCOc1ccc(Cl)cc1C)c1ccc(C)o1	-6	-5	-34	2.7	0%
O=C(Nc1ccc(-n2ccc(C(F)(F)F)n2)cc1)c1cccs1	nt	?	nt	-1.8	nt
O=C(NC1CCCC1)C(c1cccs1)N(Cc1ccco1)C(=O)Cn1nnc(-c2cccs2)n1 (stereo unspecified)	6	1	5	-2.2	-14%
CCOc1ccc2c(c1)c(N=O)c(O)n2C	10	2	-26	-2.7	-7%
Cc1nn(S(=O)(=O)c2cccs2)c(C)c1Sc1ccccc1	-2	nt	-32	nt	-10%
COc1cc(CCCN2C(N)=NC[C@@H]2c2ccccc2)cc(OC)c1OC	nt	-1	nt	-2.2	0%
O=C(NCC1CCCO1)C1CC1(c1ccccc1)c1ccccc1 (stereo unspecified)	-5	6	-4	-2.7	0%
COc1cccc(NC(=O)CN2CCN(S(=O)(=O)c3ccc(C(C)C)cc3)CC2)c1	-3	21	21	6.9	4%
COc1cccc(CC(Cc2nc3ccccc3[nH]2)c2nc3ccccc3[nH]2)c1 (stereo unspecified)	23	0	nt	12	-9%
COc1ccccc1-c1c(C)oc2c(CN3CCN(C)CC3)c(O)ccc2c1=O	-5	6	-36	-2.0	-7%
N#Cc1ccc(OC(=O)c2cnccn2)cc1	nt	-6	nt	1.2	nt
CCOC(=O)C1CCCN(C(=O)c2cc3cc(OC)c(OC)cc3[nH]2)C1 (stereo unspecified)	nt	-2	nt	-2.3	nt
Cc1ccc(C(O)P(=O)(Oc2ccccc2)Oc2ccccc2)cc1 (stereo unspecified)	nt	-8	nt	-0.5	nt
COc1ccccc1NC(=O)C(=O)/C=C(\O)c1ccccc1	nt	23	nt	3.1	-8%
CCOC(=O)c1c(/N=C/c2c(O)n(-c3cccc(C)c3)c(=O)[nH]c2=O)sc2c1CCCC2	-12	61	-20	-101	2%
CC1=NN(c2ccccc2)C(=O)C1C(=O)c1ccccc1 (stereo unspecified)	-1	99	-34	1.4	7%
O=C(O)c1ccc(C2SCC(=O)N2Cc2ccccc2)cc1 (stereo unspecified)	1	0	-19	-1.8	7%
C=CCC1NS(=O)(=O)O[C@H](CCCC)[C@@H]1O (stereo partly specified)	nt	2	nt	-1.1	nt
Cc1ccc(-c2csc(NCCn3c(-c4ccncc4)nc4ccccc43)n2)cc1	nt	17	nt	0.3	nt
CC(Nc1ccccc1N1CCCCC1)C(=O)N1CCc2ccccc21 (stereo unspecified)	12	-1	nt	2.2	11%
CC(C)C(Nc1ccc(S(=O)(=O)N2CCOCC2)cc1[N+](=O)[O-])C(=O)O (stereo unspecified)	8	-4	nt	-2.0	3%
CCn1cc(C(=O)NC2CC(C)(C)Cc3c2cnn3-c2cccc(F)c2)cn1 (stereo unspecified)	nt	8	nt	2.0	nt
SMILES	Arbovirus anti	Mtb betalactam	YopH PTP inh	RecA splice inh	Mtb H37Rv	others
Cc1cccc(NC2=C(Cl)C(=O)OC2OC(C)C)c1 (stereo unspecified)	-7	-1	nt	0.5	1%
Cc1ccc(-c2cc(C(=O)Nc3ccc(S(=O)(=O)Nc4ncccn4)cc3)c3ccccc3n2)cc1	15	-3	-27	-1.0	61%
COc1cccc(-c2nc(NC(C)(C)C)c3ccccc3n2)c1O	-8	2	6	3.7	1%
CC(NC(=O)COc1ccccc1)C1COc2ccccc2O1 (stereo unspecified)	nt	-2	-13	0.0	4%
CC(C)OC(=O)C(C)Oc1ccc(C(=O)NCCc2ccccc2)cc1 (stereo unspecified)	11	99	-9	8.5	4%
COc1ccc(C(=O)Nc2ccccc2C(=O)N/N=C/c2ccc(O)c(OC)c2)cc1	-2	-1	-12	-0.8	-7%
CCNc1nc(NCC)n2c(SCC(=O)Nc3ccc(OC)c(OC)c3)nnc2n1	nt	-6	nt	0.1	nt
Cc1ncsc1CCOC(=O)c1ccc(Cl)cc1	9	-2	nt	1.0	3%
COc1cccc(-c2nc(CS(=O)(=O)CC(=O)Nc3cc(C)ccc3C)c(C)o2)c1	-5	-6	-15	-0.7	0%	Arbovirus anti repeat=-5
CC1=NC(=O)C(N=Nc2cccc(C(=O)O)c2)N1c1ccccc1 (stereo unspecified)	12	?	-20	3.8	4%
COc1ccc(S(=O)(=O)N(C)C)cc1NC(=O)c1ccc(OCC(=O)N2CCOCC2)c(OC)c1	nt	-2	nt	0.6	nt
O=C(/C=C/c1cccc(Cl)c1)Nn1c(-c2cccs2)nc2ccccc2c1=O	-10	9	-17	-1.1	13%
Cc1ccccc1-n1c(=O)cc(NCC2CCCO2)[nH]c1=O (stereo unspecified)	4	0	-40	-1.0	-2%
O=C(Nc1ccc(Cl)c(Cl)c1)Nn1cnnc1	nt	-2	nt	0.7	nt
NC(=O)C1CCN(C(=O)COc2ccc(S(=O)(=O)NCc3ccccc3)cc2Cl)CC1	6	4	-19	-1.3	4%
CCC1(CC)NC(=O)N(CC(=O)OC(C)C(=O)Nc2ccccc2OC)C1=O (stereo unspecified)	nt	-11	nt	-0.7	nt
O=C1Nc2cc3c(cc2Sc2ccccc21)OCCO3	2	-7	-14	1.8	1%
O=c1[nH]nc(Cc2ccc(Cl)cc2)c2ccccc12	6	-10	-4	-0.5	0%
COc1ccc2c(c1OC)C(=O)N(c1ncn[nH]1)C2	4	-5	-24	1.0	-3%
N#Cc1ncccc1CCc1cccc(Cl)c1	nt	-1	nt	0.0	nt
COc1cc2c(cc1OC)C1(CCCC1)CNC2c1ccc([N+](=O)[O-])cc1 (stereo unspecified)	16	3	nt	-2.6	5%
Cc1[nH][nH]c(=O)c1C(c1ccc(-c2cccc(Cl)c2)o1)c1c(C)[nH][nH]c1=O	nt	31	nt	97*	nt
Brc1ccc(OCCn2ccnc2)cc1	3	7	3	-1.1	-1%
O=C1C(=O)N2C(=C1C(=O)N1CCCCCC1)c1ccccc1CC21CCCC1	nt	-2	nt	3.5	-7%
CC1CCc2c(sc(/N=C/c3ccco3)c2C(N)=O)C1 (stereo unspecified)	nt	-6	nt	-2.8	1%

Fetched by compound from above, two records:
SMILES	Arbovirus anti	Mtb betalactam	YopH PTP inh	RecA splice inh	Mtb H37Rv	others
Cc1cccc(NC2=C(Cl)C(=O)OC2OC(C)C)c1 (stereo unspecified)	-7	-1	nt	0.5	1%
CC(C)OC(=O)C(C)Oc1ccc(C(=O)NCCc2ccccc2)cc1 (stereo unspecified)	11	99	-9	8.5	4%

The listing picks up; the 4 compounds before the break are reprinted first.
SMILES	Arbovirus anti	Mtb betalactam	YopH PTP inh	RecA splice inh	Mtb H37Rv	others
Cc1[nH][nH]c(=O)c1C(c1ccc(-c2cccc(Cl)c2)o1)c1c(C)[nH][nH]c1=O	nt	31	nt	97*	nt
Brc1ccc(OCCn2ccnc2)cc1	3	7	3	-1.1	-1%
O=C1C(=O)N2C(=C1C(=O)N1CCCCCC1)c1ccccc1CC21CCCC1	nt	-2	nt	3.5	-7%
CC1CCc2c(sc(/N=C/c3ccco3)c2C(N)=O)C1 (stereo unspecified)	nt	-6	nt	-2.8	1%
COc1ccc(C(=O)C2CCCN(Cc3ccc(C)s3)C2)c(OC)c1 (stereo unspecified)	-2	-6	nt	0.2	-2%
O=C(CCS(=O)(=O)c1ccc(F)cc1)Nc1nc(-c2ccncc2)cs1	nt	20	nt	2.2	nt
CCOc1ccc(C(=O)NCCc2ccccc2)cc1	-1	-3	-12	0.4	-11%
CCOC(=O)c1[nH]c(C)c(C(=O)OCC(=O)N(C)C2CCS(=O)(=O)C2)c1C (stereo unspecified)	1	-5	nt	1.3	-12%
CCOc1ccc(NC(=O)c2ccccc2CO)cc1	-4	98	-5	-1.3	9.5µM*
C/C=C/C=C/C(=O)Nc1cccc(C2=NOC3(C2)C[C@H](C(N)=O)N(C(=O)CC(c2ccccc2)c2ccccc2)C3)c1 (stereo partly specified)	nt	3	nt	8.9	nt
Cc1cc(/C=C(/C#N)C(=O)Nc2ccccc2)c(C)n1-c1cccnc1	5	-5	-22	-2.8	3%
Cc1ccc(C(=O)Nc2ccc(Nc3ccccc3)cc2)c(Cl)c1	nt	2	nt	0.4	nt
CCc1noc(C)c1C(=O)Nc1cc(C(F)(F)F)ccc1-n1cncn1	nt	-5	nt	-2.3	nt
Cc1ccc(N2C(=O)C3ON(c4ccccc4)C(CC(C)C)C3C2=O)cc1 (stereo unspecified)	nt	-5	nt	-0.5	-11%
CCOC(=O)c1c(COC(=O)c2ccco2)nc2ccccc2[n+]1[O-]	2	-7	-3	1.2	1%
CCn1c(=O)c2ccccc2n(Cc2cccc([N+](=O)[O-])c2)c1=O	nt	4	nt	0.9	nt
O=C1C=C(Nc2ccccc2O)c2ccccc2C1=O	-32	98	27	95*	23µM*
N#CCSc1nc(-c2ccccc2)nc2ccccc12	nt	6	nt	1.3	nt
O=C(CCc1nnc(CCc2ccccc2)o1)NC(c1cccnc1)C(F)(F)F (stereo unspecified)	nt	0	nt	-1.1	-4%
CN(C)CCNc1c2c(nc3nnnn13)CCCC2	-2	-11	nt	-0.1	0%
CN(CC(=O)Nc1ccccc1)CC(=O)Nc1ccc(F)cc1	nt	-3	nt	1.2	nt
NC(=O)C1CCN(C(=O)CNC(=O)c2ccc(Br)o2)CC1	nt	4	nt	-3.2	nt

High-throughput results as filed in PubChem BioAssay.

Only part of the results is shown; count on the stated rates, not on these rows.
